Rce1 inhib: inhibitors of yeast Ras-converting enzyme | Q03530 | yeast membranes, quenched prenylated peptide cleavage fluorescence | calls only | 290,000 tested, 0.27% active | AID 2563;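 active = fall in fluorescence gain of 50% or more versus controls, with final raw signal at or below 3038400; inconclusive = same 50% fall but final raw signal above 3038400; inactive = fall in fluorescence gain under 50%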;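 also: plate controls were neutral control wells for no effect and wells lacking membranes for full effect; tested at 10 µM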
Target sequence (Q03530 whole entry, looked up): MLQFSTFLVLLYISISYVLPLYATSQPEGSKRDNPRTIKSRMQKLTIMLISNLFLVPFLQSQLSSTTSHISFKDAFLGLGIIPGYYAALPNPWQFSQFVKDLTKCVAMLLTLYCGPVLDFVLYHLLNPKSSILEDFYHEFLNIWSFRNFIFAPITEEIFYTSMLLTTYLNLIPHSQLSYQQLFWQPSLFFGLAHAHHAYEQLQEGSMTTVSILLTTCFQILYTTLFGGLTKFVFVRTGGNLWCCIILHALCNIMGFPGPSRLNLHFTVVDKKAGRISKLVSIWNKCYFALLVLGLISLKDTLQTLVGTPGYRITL
Yeast UUG start: yeast start codon fidelity modulation | S. cerevisiae UUG-firefly luciferase reporter, luminescence/redox ratio | activity score, % at 18.7 µM | 350,000 tested, 0.13% active | AID 602363;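 active = replicate mean at a twofold rise or more, about +100% in these data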;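 also: firefly luciferase made from a UUG start codon reports start codon fidelity; reporter light over untreated wells divided by growth signal over untreated wells; some hits fall short of that in this replicate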
HIV Env fusion: inhibitors of HIV Env-mediated cell fusion | HeLa-JRFL Env/CEM21 cell fusion, luciferase | inhibition, % at 12.3 µM | 360,000 tested, 1.1% active;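 active = mean replicate inhibition score of at least 50 and every replicate individually at or above 50; inconclusive = only one of the two criteria met; inactive = mean below 50 and not all replicates reaching 50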;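 also: 0% = plate neutral controls and 100% = maraviroc near 300 nM; one replicate is shown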
CSC inhib: cancer stem cell inhibition. cancer stem cell-like cells viability, luminescence. inhibition, % at 7.5 µM. 300,000 tested, 1.1% active;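 active = mean at 75% or more and at least half the replicates too; inconclusive = mean and replicates disagree; tested in HMLE shEcad cells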;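 also: 0% = median of negative and 100% = median of positive control wells; the first replicate is given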
PABP polyA inh: blocks human PABP binding to poly(A) RNA; fluorescence polarization; inhibition, % at 35 µM; 290,000 tested, 1% active;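 active = 50% or more with normal probe brightness, or confirmed in later tests; inconclusive = above 50% with abnormal brightness, or retests that disagree; inactive = below 50% or failed in later tests; about a fifth of its hits are not listed in these tables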;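 also: calls also rest on retests at 20 µM and on dose response follow-up; controls were probe without protein and protein plus probe with vehicle; some compounds called inactive have numbers as strong as hits; many hits fall short of the cut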
Target sequence (P11940 whole entry, looked up): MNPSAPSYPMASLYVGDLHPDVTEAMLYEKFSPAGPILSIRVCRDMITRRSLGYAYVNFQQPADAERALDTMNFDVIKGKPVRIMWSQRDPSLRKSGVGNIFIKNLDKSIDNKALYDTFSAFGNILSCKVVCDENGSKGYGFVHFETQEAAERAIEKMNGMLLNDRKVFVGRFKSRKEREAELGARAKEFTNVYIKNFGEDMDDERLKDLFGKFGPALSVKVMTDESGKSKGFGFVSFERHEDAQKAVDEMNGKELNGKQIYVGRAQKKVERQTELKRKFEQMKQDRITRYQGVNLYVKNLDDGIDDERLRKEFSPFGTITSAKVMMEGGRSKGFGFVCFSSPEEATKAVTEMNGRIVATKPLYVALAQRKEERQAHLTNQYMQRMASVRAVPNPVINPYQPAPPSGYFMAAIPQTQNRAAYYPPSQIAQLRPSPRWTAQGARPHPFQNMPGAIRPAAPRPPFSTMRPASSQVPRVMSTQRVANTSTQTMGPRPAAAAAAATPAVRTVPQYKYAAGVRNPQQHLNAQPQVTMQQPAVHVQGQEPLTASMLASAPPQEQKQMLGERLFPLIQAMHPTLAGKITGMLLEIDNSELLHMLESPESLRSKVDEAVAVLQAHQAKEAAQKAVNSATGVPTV
eIF4H FP inh: inhibitors of RNA binding by human eIF4H; Q15056; eIF4H fluorescence polarization binding assay; inhibition, % at 35 µM; 290,000 tested, 0.94% active;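 active = 50% or more with normal probe brightness, or confirmed in later tests; inconclusive = above 50% with abnormal brightness, or retests that disagree; inactive = below 50% or failed in later tests; about a fifth of its hits are not listed in these tables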;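 also: calls also rest on retests at 20 µM and on dose response follow-up; 0% = protein and probe with vehicle and 100% = probe without protein; strong numbers were not always called active; many hits fall short of the cut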
MT1-MMP act inh: inhibitors of human MT1-MMP activation; 360,000 tested, 0.061% active; HT1080 RFP-PRO-GFP cells, GFP/RFP ratio fluorescence, overnight; percent of plate control window, DMSO zero; P50281; GFP/RFP ratio change, % at 20 µM;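 active = GFP/RFP ratio change of at least 30% with cell ATP level not reduced by more than half and red fluorescence within 50% of control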; also: strong numbers were not always called active
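system = RFP-PRO-GFP reporter HT1080 cells | dosing = 20 µM single dose, 1% DMSO | timing = overnight cell settling, then overnight compound exposure, 37 °C, 5% CO2 | read-out basis = GFP/RFP fluorescence ratio | controls = DMSO and RFP-L50D-GFP cell wells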
MT1-MMP act inh RFP: recorded beside MT1-MMP act inh, whose call it bears; RFP signal change, %; measured here: RFP expression control read;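 0 = vehicle wells; hits needed this value within 50% of zero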
The depositor's hits bear a star. Hits appear at their usual frequency; overall some 3% were active at least once.

Start of the listing, in advance:
Screening Cc1ccc2nc(SCC(=O)N3CCCCC3)nc(=O)n2c1 returned Rce1 inhib inactive, Yeast UUG start 0, HIV Env fusion 5, CSC inhib -7, MT1-MMP act inh 1 and MT1-MMP act inh RFP 4.
Screening COc1cc(O)c(C(CC(=O)N2CCOCC2)c2ccc(N(C)C)cc2)c(OC)c1 (stereo unspecified) returned Rce1 inhib inactive, Yeast UUG start -12, HIV Env fusion 20, CSC inhib -18, PABP polyA inh 6, eIF4H FP inh 2, MT1-MMP act inh 0 and MT1-MMP act inh RFP 2.

Main list, from the start:
Screening Cc1ccc2nc(SCC(=O)N3CCCCC3)nc(=O)n2c1 returned Rce1 inhib inactive, Yeast UUG start 0, HIV Env fusion 5, CSC inhib -7, MT1-MMP act inh 1 and MT1-MMP act inh RFP 4.
Screening COc1cc(O)c(C(CC(=O)N2CCOCC2)c2ccc(N(C)C)cc2)c(OC)c1 (stereo unspecified) returned Rce1 inhib inactive, Yeast UUG start -12, HIV Env fusion 20, CSC inhib -18, PABP polyA inh 6, eIF4H FP inh 2, MT1-MMP act inh 0 and MT1-MMP act inh RFP 2.
O=C(c1ccccc1)C1(c2ccccc2)OC1c1ccccc1 (stereo unspecified) was read as Yeast UUG start -27, HIV Env fusion 11, MT1-MMP act inh -6 and MT1-MMP act inh RFP -3.
For CCOC(=O)Cc1ccc(Nc2nc(NCc3ccccc3)nc3ccsc23)cc1 the results were Yeast UUG start -5, HIV Env fusion 30, MT1-MMP act inh -7 and MT1-MMP act inh RFP -17.
Cc1ccc(-c2ccc(/C=N/N=C3/NC(=O)C(CC(=O)O)S3)o2)c([N+](=O)[O-])c1 (stereo unspecified) was read as Rce1 inhib inactive, Yeast UUG start -32, HIV Env fusion -26, CSC inhib -1, PABP polyA inh 6, eIF4H FP inh 37, MT1-MMP act inh 4 and MT1-MMP act inh RFP 3.
`COC(=O)c1sccc1NC(=O)NC1CCCCC1` gave Rce1 inhib inactive, HIV Env fusion -10, CSC inhib 14, PABP polyA inh 0, eIF4H FP inh -4, MT1-MMP act inh -3 and MT1-MMP act inh RFP -2.
`CC1CCCCC1NC(=O)CN1CCN(S(=O)(=O)c2ccc(Br)s2)CC1` (stereo unspecified) gave Yeast UUG start -28, CSC inhib -4, MT1-MMP act inh -6 and MT1-MMP act inh RFP -1.
`CC1CCC(NC(=O)C2CCC(CNS(=O)(=O)c3ccc4c(c3)C(C)(C)C(=O)N4C)CC2)CC1` (stereo unspecified) gave Yeast UUG start -17, HIV Env fusion -9, MT1-MMP act inh 7 and MT1-MMP act inh RFP -3.
`O=C(NNc1nc(Nc2ccccc2)nc(N2CCOCC2)n1)Nc1ccc(Cl)cc1` gave Rce1 inhib inactive, HIV Env fusion -6, CSC inhib 34, PABP polyA inh 2, eIF4H FP inh -2, MT1-MMP act inh 5 and MT1-MMP act inh RFP -7.
Screening Cc1cccc(NC(=O)c2ccc3nsnc3c2)c1C returned Rce1 inhib inactive, HIV Env fusion 7, CSC inhib -5, PABP polyA inh 9, eIF4H FP inh -12, MT1-MMP act inh -3 and MT1-MMP act inh RFP -1.
For CC1CCCC(C)N1C(=O)COC(=O)c1ccc([N+](=O)[O-])o1 (stereo unspecified) the results were Yeast UUG start 8, HIV Env fusion -7, CSC inhib -10, MT1-MMP act inh -1 and MT1-MMP act inh RFP -1.
For N#CCCn1cc(CNC2CCC(O)CC2)c2ccccc21 (stereo unspecified) the results were Yeast UUG start -10, HIV Env fusion -16, CSC inhib -5, PABP polyA inh 8, eIF4H FP inh 0, MT1-MMP act inh -3 and MT1-MMP act inh RFP -5.
`C=CCn1c(O)c2ccc(C(=O)N=NC(=O)c3ccc(F)cc3)cc2c1O` gave Rce1 inhib inactive, Yeast UUG start -13, HIV Env fusion -5, CSC inhib -3, MT1-MMP act inh -1 and MT1-MMP act inh RFP 1.
Screening COc1ccc(C(=O)NCCCN(C)CCCNC(=O)c2ccc(OC)cc2)cc1 returned Rce1 inhib inactive, Yeast UUG start -12, HIV Env fusion -4, CSC inhib -14, PABP polyA inh 9, eIF4H FP inh -1, MT1-MMP act inh 0 and MT1-MMP act inh RFP 9.
Screening COc1ccc(-c2ccc3c(c2)S(=O)(=O)c2cccc(C(=O)NC4CC4)c2C3=O)cc1OC returned Yeast UUG start 0, HIV Env fusion -43, CSC inhib -10, MT1-MMP act inh -17 and MT1-MMP act inh RFP -1.
`CSC1=NC(NCCCO)c2c(sc3c2CC(C)(C)OC3)N1` (stereo unspecified) gave Rce1 inhib inactive, Yeast UUG start -16, HIV Env fusion -86, CSC inhib -4, PABP polyA inh 9, eIF4H FP inh -9, MT1-MMP act inh -1 and MT1-MMP act inh RFP -1.
For Cc1nnc(NC(=O)c2ccncc2)s1 the results were Rce1 inhib inactive, Yeast UUG start -6, CSC inhib -6, PABP polyA inh 5, eIF4H FP inh -8, MT1-MMP act inh -3 and MT1-MMP act inh RFP -1.
`O=[N+]([O-])c1cccc(-c2n[nH]c(=S)n2-c2ccccc2)c1` gave Rce1 inhib inactive, CSC inhib 0, PABP polyA inh -10 and eIF4H FP inh 0.
Screening CN1CCN(c2ccc(Nc3ccnc4cc(Cl)ccc34)cc2)CC1 returned Rce1 inhib inactive, Yeast UUG start -26, HIV Env fusion 2, CSC inhib 30, PABP polyA inh 21, eIF4H FP inh -13, MT1-MMP act inh 1 and MT1-MMP act inh RFP -1.
CCOc1ccccc1-n1c(N)c(C(N)=O)sc1=S was read as Rce1 inhib inactive, Yeast UUG start -8, HIV Env fusion -23, CSC inhib -13, PABP polyA inh -5, eIF4H FP inh -8, MT1-MMP act inh 5 and MT1-MMP act inh RFP 7.
For COc1cc2c(cc1OC)C1C(C(=O)Nc3ccccc3N3CCN(C)CC3)c3ccccc3C(=O)N1CC2 (stereo unspecified) the results were Rce1 inhib inactive, HIV Env fusion -31, CSC inhib -1, PABP polyA inh 4, eIF4H FP inh -3, MT1-MMP act inh -13 and MT1-MMP act inh RFP -1.
O=C(Cc1ccc(Cl)cc1)NCc1ccccc1Cl was read as Rce1 inhib inactive, HIV Env fusion -1, PABP polyA inh -9, eIF4H FP inh -6, MT1-MMP act inh 2 and MT1-MMP act inh RFP 3.
For Cc1ccc(F)c(NC(=S)Nc2cccc3ccccc23)c1 the results were Rce1 inhib inactive, Yeast UUG start -24, HIV Env fusion 18, CSC inhib 41, PABP polyA inh 16, eIF4H FP inh 7, MT1-MMP act inh -1 and MT1-MMP act inh RFP 4.
CN(CC(=O)Nc1ccc(N2CCOCC2)cc1)C(=O)CC(c1ccccc1)c1ccccc1 was read as Rce1 inhib inactive, Yeast UUG start 9, HIV Env fusion -4, CSC inhib -15, PABP polyA inh 3, eIF4H FP inh 2, MT1-MMP act inh -5 and MT1-MMP act inh RFP 2.
`Cc1cccc(C)c1NC(=O)COC(=O)C1C2CC3OC(=O)C1C3C2` (stereo unspecified) gave Yeast UUG start 1, HIV Env fusion -17, CSC inhib -13, PABP polyA inh -2, eIF4H FP inh -10, MT1-MMP act inh 1 and MT1-MMP act inh RFP 1.
For C=CC[C@@H](CC(=O)NCCO)C(=O)N[C@@H](C)COC(=O)[C@@H](CC=C)Cc1ccc(F)cc1 the results were Yeast UUG start -14, HIV Env fusion 5, CSC inhib -13, MT1-MMP act inh 5 and MT1-MMP act inh RFP -2.
CCC(CO)Oc1cc(NCc2cccc(Cl)c2)c2ncn(C(C)C)c2c1 (stereo unspecified) was read as Yeast UUG start -19, CSC inhib 18, MT1-MMP act inh -12 and MT1-MMP act inh RFP 2.
Screening CC(=O)Nc1cccc(OCCCNC(=O)c2cccc3ccccc23)c1 returned Rce1 inhib inactive, Yeast UUG start 13, HIV Env fusion 4, CSC inhib 5, PABP polyA inh 3, eIF4H FP inh -7, MT1-MMP act inh 1 and MT1-MMP act inh RFP -2.
COc1ccc(C2CC(=O)C(C=NCCN3CCN(C(C)=O)CC3)=C(O)C2)cc1 (stereo unspecified) was read as Rce1 inhib inactive, Yeast UUG start -3, PABP polyA inh inconclusive, eIF4H FP inh -12, MT1-MMP act inh -2 and MT1-MMP act inh RFP 2.
CCOc1ccccc1N(CC(=O)NCC1CCCO1)C(=O)CCC(=O)Nc1ccccn1 (stereo unspecified) was read as Rce1 inhib inactive, PABP polyA inh -8, eIF4H FP inh -10, MT1-MMP act inh 3 and MT1-MMP act inh RFP 5.
For C/C(=N\NC(=O)c1nnn(-c2nonc2N)c1CN1CCOCC1)c1ccc(CC(C)C)cc1 the results were Rce1 inhib inactive, Yeast UUG start -2, HIV Env fusion -6, CSC inhib -5, PABP polyA inh 0, eIF4H FP inh -10, MT1-MMP act inh 2 and MT1-MMP act inh RFP 6.
`CCN(CC)c1ccc(NC(=O)c2ccc(Br)o2)c(C)c1` gave Rce1 inhib inactive, Yeast UUG start 6, HIV Env fusion -86, CSC inhib -5, PABP polyA inh -10, eIF4H FP inh 1, MT1-MMP act inh 2 and MT1-MMP act inh RFP -1.
For CCCCn1c(N)c(N(CC)C(=O)c2c(C)noc2C)c(=O)[nH]c1=O the results were Yeast UUG start -5, HIV Env fusion 1, CSC inhib 4, MT1-MMP act inh -2 and MT1-MMP act inh RFP 3.
Screening CC1=C(C(N)=O)C(c2ccncc2)n2nc(-c3ccccc3Cl)nc2N1 (stereo unspecified) returned Rce1 inhib inactive, Yeast UUG start -15, HIV Env fusion -10, CSC inhib -10, PABP polyA inh -18, eIF4H FP inh -12, MT1-MMP act inh 6 and MT1-MMP act inh RFP 3.
Screening O=C(Nc1cccc(S(=O)(=O)NC2=NCCC2)c1)c1ccc(F)cc1F returned Yeast UUG start -10, HIV Env fusion 5, CSC inhib 18, MT1-MMP act inh 7 and MT1-MMP act inh RFP -9.
For O=[N+]([O-])c1ccc2cn(-c3ccccc3)nc2c1 the results were Rce1 inhib inactive, Yeast UUG start -9, HIV Env fusion -61, PABP polyA inh -2, eIF4H FP inh 1, MT1-MMP act inh 2 and MT1-MMP act inh RFP 4.
C=CCn1c(SCC(=O)NCc2ccco2)nnc1-c1ccc2ccccc2n1 was read as Rce1 inhib inactive, Yeast UUG start -9, CSC inhib -7, PABP polyA inh 14, eIF4H FP inh 38, MT1-MMP act inh -9 and MT1-MMP act inh RFP -5.
`COc1ccc(Cn2nnnc2C(c2ccncc2)N2CCOCC2)cc1` (stereo unspecified) gave Rce1 inhib inactive, Yeast UUG start 2, CSC inhib -11, PABP polyA inh 6, eIF4H FP inh -4, MT1-MMP act inh 0 and MT1-MMP act inh RFP 6.
For COc1ccc(-c2cc(C(F)(F)F)n3nc(C(=O)NCc4ccco4)c(Cl)c3n2)cc1 the results were Rce1 inhib inactive, Yeast UUG start -8, HIV Env fusion -79, CSC inhib 11, PABP polyA inh -1, eIF4H FP inh -2, MT1-MMP act inh -3 and MT1-MMP act inh RFP 4.
`COc1ccc(-c2noc(CSc3nnc(Cc4ccccc4)n3-c3cccc(C)c3)n2)cc1OC` gave Rce1 inhib inactive, Yeast UUG start -3, CSC inhib 32, PABP polyA inh 2, eIF4H FP inh -5, MT1-MMP act inh -2 and MT1-MMP act inh RFP -8.
Cc1ccccc1Nc1nc(N)nc(CN2C(=O)NC3(CCCCC3C)C2=O)n1 (stereo unspecified) was read as Rce1 inhib inactive, Yeast UUG start -11, HIV Env fusion 16, CSC inhib 3, PABP polyA inh -2, eIF4H FP inh -3, MT1-MMP act inh 8 and MT1-MMP act inh RFP -1.
`COc1ccc(Cl)cc1CNCCCSc1ncccn1` gave Rce1 inhib inactive, Yeast UUG start -14, HIV Env fusion 1, CSC inhib -8, PABP polyA inh 5, eIF4H FP inh -5, MT1-MMP act inh 1 and MT1-MMP act inh RFP 1.
Nc1cc(Cl)ccc1C(=O)OCC(=O)N1CCCC1 was read as Rce1 inhib inactive, Yeast UUG start 5, HIV Env fusion -15, PABP polyA inh 0, eIF4H FP inh -1, MT1-MMP act inh 0 and MT1-MMP act inh RFP 3.
